Bioassay records deposited in PubChem BioAssay by several laboratories.
Sa ugtP lethal: compounds lethal to S. aureus RN4220 ugtP deletion mutant. OD600 growth, 16 h; some inactives read as strong as hits. growth inhibition, % (test concentration not listed). actives 0.54% (n = 330,000);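 active = z-score under -3 and OD600 up to 0.15 on both plates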;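 also: plate controls were untreated wells for no effect and antibiotic for full effect; wells of about 80 µL received 100 nL stock; the first replicate is given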
Bead autofluor: compound fluorescence in toxin protease inhibitor counterscreen. actives 3.1% (n = 360,000). compound autofluorescence counterscreen, microsphere flow cytometry; hits give high values. fluorescence intensity (concentration not given with the values);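 active = at least 3 SD above the mean of all compounds, about 16000 in these data; inconclusive = too few beads counted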;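 also: 100 nL of 1 mM stock went into each well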
BJeLR viability: kills HRASV12-expressing BJeLR cells; actives 0.17% (n = 300,000); inhibition, % (concentration not given with the values); BJeLR (HRASV12) viability, CellTiter-Glo ATP luminescence, 48 h; reference of the scale not given here;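 active = replicate mean above 50%; inconclusive = above 50% but judged a plate artefact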;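 also: 50 nL library stock added to about 25 µL; numbers are from one replicate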
PrP 5UTR inh: inhibition of PrP 5' UTR reporter expression; cell-based PrP 5' UTR mRNA reporter, plate reader; actives 0.35% (n = 340,000); AID 488862; inhibition, % (test concentration not listed);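 active = every replicate at 50% or more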;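 also: 0 = median of the neutral control wells; tested in H4 reporter cells; numbers are from one replicate; inactives centre near -14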
Sa RN4220 lethal: kills Staphylococcus aureus RN4220 | S. aureus RN4220 growth, OD600, 16 h | inhibition, % (no concentration beside the values) | actives 0.33% (n = 330,000);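 active = z-score of -3 or lower and OD600 up to 0.18 on both plates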;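 also: plate controls were untreated cells for no effect and reference antibiotic for full effect; stock transfer was 100 nL into about 80 µL; one replicate is shown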
Mtb hypoxia rep: inhibitors of hypoxia-regulated fluorescent reporter in Mycobacterium tuberculosis. actives 0.1% (n = 300,000). M. tuberculosis hypoxia-regulated fluorescent reporter, fluorescence. fluorescence inhibition, % (test concentration not listed);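 active = 35 to 45% if threefold the growth effect, above 45% if 1.5-fold the growth effect; inactive = the rest, general growth blockers included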;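 also: wells of about 50 µL received 100 nL stock; 0% = vehicle wells and 100% = reference inhibitor wells; whole bacteria with a GFP reporter of the hypoxia response; strong numbers were not always called active; many hits fall short of the cut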
Mtb hypoxia rep growth: further read-out of Mtb hypoxia rep, marked with its call; growth inhibition, %; measured here: M. tuberculosis growth (absorbance);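 0% = vehicle and 100% = reference antibiotic; read after six days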
Numbers without * were called inactive; ? = inconclusive; · = not tested or not shown.

The opening three records, to show the layout:
SMILES	Sa ugtP lethal	Bead autofluor	BJeLR viability	PrP 5UTR inh	Sa RN4220 lethal	Mtb hypoxia rep	Mtb hypoxia rep growth
CCN1C(=NCCCCO)N[C@@H](c2cccc(F)c2)C(C(=O)OC)=C1C	18	3138	3	-12	28	-6	-2
O=C(COC(=O)/C=C/c1ccc(C(F)(F)F)cc1)NC(=O)NCc1ccco1	11	6680	·	-7	7.5	-1	-1
COc1ccc(N(C(=O)c2snc(C(N)=O)c2N)C(C(=O)NC2CCCC2)c2cc(OC)ccc2OC)cc1 (stereo unspecified)	7	5632	-5	-3	-2.4	-4	3

Main list, repeating the preview:
SMILES	Sa ugtP lethal	Bead autofluor	BJeLR viability	PrP 5UTR inh	Sa RN4220 lethal	Mtb hypoxia rep	Mtb hypoxia rep growth
CCN1C(=NCCCCO)N[C@@H](c2cccc(F)c2)C(C(=O)OC)=C1C	18	3138	3	-12	28	-6	-2
O=C(COC(=O)/C=C/c1ccc(C(F)(F)F)cc1)NC(=O)NCc1ccco1	11	6680	·	-7	7.5	-1	-1
COc1ccc(N(C(=O)c2snc(C(N)=O)c2N)C(C(=O)NC2CCCC2)c2cc(OC)ccc2OC)cc1 (stereo unspecified)	7	5632	-5	-3	-2.4	-4	3
Cc1ccc(S(=O)(=O)NN2C(=O)c3ccccc3NC2c2ccccc2F)cc1 (stereo unspecified)	0	5776	-4	-1	3.1	2	-2
CCN(CC)c1ccc(C(=O)NNC(=O)CCl)cc1	·	3435	2	-16	·	·	·
CC(C)(C)NC(=O)c1c(F)c(F)c(F)c(F)c1F	-4	2448	-7	-6	2.2	-3	5
CCCSc1nnc(NC(=O)Cc2ccc(OC)c(OC)c2)s1	0	3405	4	-9	9.0	7	10
[O-]/C(=C(\C(=S)Nc1cccc2ccccc12)[n+]1ccccc1)c1ccc(OC(F)F)cc1	11	3672	·	-16	-3.1	3	5
CN1CCC(N(C)C(=O)COc2ccccc2Cl)CC1	5	3345	·	-23	5.5	10	2
Cc1cc(C)c(S(=O)(=O)c2cc(F)ccc2C)c(Cl)n1	1	3526	8	-16	3.2	3	-4
COC(=O)C(CCSC)NC(=O)C12CC3CC(CC(C3)C1)C2 (stereo unspecified)	3	9341	4	-22	2.0	14	19
Nc1nc(SCC(=O)O)[nH]c(=O)c1NC(=O)c1ccco1	1	6914	-8	-5	0.8	-2	-1
COc1cccc(CNS(=O)(=O)c2cc3c(cc2C)NC(=O)CO3)c1	-4	6275	2	-13	-6.1	4	7
O=C(Cc1ccc(F)cc1)NN=Cc1ccccn1	1	·	·	·	4.0	7	5
CCCn1c(C)cc(/C=C(\C#N)C(=O)OCC(=O)Nc2cc(OC)c(OC)c(OC)c2)c1C	-6	2700	-16	-36	2.2	-1	1
O=C(CN1C(=O)c2cccc3cccc1c23)Nc1ccccc1	3	3992	-3	-12	-0.8	-7	3
CC1CCC(NC(=O)CCNS(=O)(=O)c2ccccc2)CC1 (stereo unspecified)	-1	5389	5	-12	3.2	6	2
O=C(CN1C(=O)NC2(CCCc3ccccc32)C1=O)NCc1ccco1 (stereo unspecified)	-2	3275	-3	-18	7.3	5	3
COc1cc(CNC(=O)C2CC2)ccc1OCc1ccccc1	-1	4625	8	-80	4.3	6	0
Cc1cc(C=NNC(=O)c2cccc(F)c2)c(C)n1-c1ccccc1	0	·	·	·	0.9	-5	-2
O=C(NCc1ccccc1)c1ccc(CSc2ccccc2)o1	0	4134	-7	-22	4.2	5	2
Cc1cccc(C)c1C(=NCCN(C)C)c1ccccc1	8	4624	-4	-6	3.7	7	6
CC(C)c1ccccc1NC(=O)CN1C(=O)c2ccccc2C1=O	·	3120	-5	-20	·	·	·
O=C(CCCc1nc2ccccc2s1)NNC(=O)CCN1CCN(Cc2ccccc2)CC1	18	3268	7	-21	1.9	8	-1
Cc1cccc(OCCN2C(=O)c3ccccc3C2=O)c1	3	4438	-2	-24	7.8	5	8
O=C(OCc1nc2ccc(Cl)cc2n1CCO)c1ccccc1	4	2104	-1	-12	6.9	12	7
COc1ccc(-c2nc(-c3ccncc3)no2)c(OC)c1	10	4239	-6	-17	1.9	2	-9
O=C(CC(=O)c1ccccc1)Nc1cccnc1	3	2494	6	-9	3.9	5	9
COC(=O)c1sc(N)c(C(=O)OC)c1COC(=O)CNS(=O)(=O)c1ccc(C)c(C)c1	4	10446	10	-6	4.9	5	18
Cc1ccc(O)c(NC(=O)C2CC(c3cccc(Br)c3)=NO2)c1 (stereo unspecified)	·	3448	-2	-29	·	·	·
COCCC(=O)N1CCC(Oc2ccc(C(=O)NCc3ccon3)cc2)CC1	1	5658	9	-4	-3.5	-8	-4
CCn1ccnc1CNC(=O)CC1C(=O)NCCN1Cc1ccccc1F (stereo unspecified)	3	5116	-5	-26	5.6	3	0
CCN(CC(=O)NCc1cccs1)C(=O)c1cccc(S(=O)(=O)NC)c1	·	8973	-5	8	·	·	·
CCCC(=O)Nc1ccc(Cl)c(NC(=O)c2cccnc2Cl)c1	0	3178	0	-2	3.7	9	-1
CC(=O)N1N=C(c2c(-c3ccccc3)c3cc(C)ccc3[nH]c2=O)CC1c1ccco1 (stereo unspecified)	-10	2278	3	-14	4.4	0	7
CCc1ccc(C(C)NC(=O)Cn2cnc3c(=O)n(C)c(=O)n(C)c32)cc1 (stereo unspecified)	9	16189*	14	-15	1.1	1	0
CC(=NNC(=O)c1cnccn1)c1ccncc1	0	·	·	·	4.6	3	4
Cc1onc(-c2ccccc2)c1C(=O)N/N=C/c1ccc(O)c([N+](=O)[O-])c1	·	6303	2	-11	·	·	·
O=C(O)CCC(=O)Nc1ccc(N=Nc2ccccc2)cc1	4	4771	0	-27	5.4	12	3
CS(=O)(=O)N1CCC(C(=O)Nc2ccccc2F)CC1	-3	9866	1	-12	2.0	5	-5
O=C(Nc1nc(-c2cc(F)ccc2F)cs1)c1cccc(N2C(=O)CCC2=O)c1	5	4806	-3	-33	12	14	-1
COc1ccc(CN2C(=O)c3cccnc3C2=O)cc1S(=O)(=O)N1CCCCC1	-15	·	-4	-11	-5.6	-11	1
CC(C)(C)N1C(=O)[C@H]2[C@@H](c3ccc(Br)cc3)N3C(=O)N(c4cccc(F)c4)C(=O)[C@@]3(Cc3ccccc3)[C@H]2C1=O	·	3703	-1	-10	·	·	·
CCn1c(SCC(=O)NNC(=S)Nc2ccc(C)cc2)nnc1-c1ccc(Cl)cc1	13	2188	10	-23	4.7	6	6
COC(=O)c1ccccc1NC(=O)CSc1nc(N)cc(=O)[nH]1	3	4639	3	-21	1.5	-2	9
Cc1cccc(CN(C)CCc2ccccn2)c1	6	16809*	8	-1	1.6	0	-1
CC(=NNc1ccccc1Cl)c1ccc(-n2ccnc2)cc1	5	·	·	·	-4.8	4	-4
O=C1c2ccccc2C2(c3ccccc3)NCCN12 (stereo unspecified)	10	7980	6	-17	1.7	5	6
O=C(c1cnn(C(=O)COc2ccc(Cl)cc2)c1)c1ccccc1O	2	3382	1	-11	3.9	10	4
O=C(O)c1cccc(N/N=C/c2ccc(-c3ccccc3)cc2)c1	·	3537	7	-5	·	·	·
CC1C=CCC2C(=O)N(c3cccc(C(=O)NCc4ccccc4)c3)C(=O)C12 (stereo unspecified)	7	3762	2	-16	5.4	5	6
C[N+](C)(C)CCOP(=O)(O)OP(=O)([O-])OCC1OC(n2ccc(N)nc2=O)C(O)C1O (stereo unspecified)	1	·	·	·	5.6	9	3
c1cncc(Nc2nc(-c3ccncc3)cs2)c1	42	18714*	-6	-19	5.1	-3	2
Cc1ccc(CNC(=O)CCS(=O)(=O)c2cc3c(cc2C)NC(=O)CO3)cc1	-4	5868	-18	-1	2.5	-5	-2
COc1ccc(S(=O)(=O)N2CCOCC2)cc1NC(=O)CSc1nnc(NC2CC2)s1	-1	3470	·	-30	3.4	7	9
O=C(NC1CCCC1)c1ccc(Cl)c(S(=O)(=O)N2CCCCC2)c1	-3	4053	3	-29	0.3	11	10
COc1ccc(/C=C/C(=O)Nc2cccc(C(C)=O)c2)cc1	2	10920	19	-38	4.9	-2	1
CCN(CC)c1ccc(NC(=O)COC(=O)c2ccc3ccccc3n2)cc1	-7	3583	-4	-16	0.3	2	4
Cc1ccc(C)c(NC(=S)NC2CC3CCC(C2)N3Cc2ccco2)c1 (stereo unspecified)	6	9013	12	-11	1.9	10	2
CC(C)(C)[C@H]1C=C(C(=O)NCc2ccccc2)O[C@@H](OCCCCO)C1	·	3716	6	-6	·	·	·

New compounds follow.
SMILES	Sa ugtP lethal	Bead autofluor	BJeLR viability	PrP 5UTR inh	Sa RN4220 lethal	Mtb hypoxia rep	Mtb hypoxia rep growth
Cc1cccc(N2CCN(C(=O)c3ccc4c(c3)NC(=O)C(CSCc3cccc(F)c3)N4)CC2C)c1 (stereo unspecified)	·	15157	-16	-25	·	·	·
O=C(COc1ccc(Br)cc1)N1CCNC1=O	3	6709	6	-24	0.3	6	4
Cc1ccccc1NS(=O)(=O)c1ccc2[nH]cc(C(=O)N(C)Cc3ccco3)c(=O)c2c1	-2	2937	-4	-20	-14	16	14
CC1(NC(=O)Cc2c(Cl)cccc2Cl)CCS(=O)(=O)C1 (stereo unspecified)	-1	3382	·	-4	9.9	·	·
CC(OC(=O)CCC(=O)c1cccs1)C(=O)NC1CCCCC1C (stereo unspecified)	-3	5227	·	·	2.5	6	2
COc1cccc(C=Nn2c(C)nc3ccccc32)c1OC	-2	·	·	·	19	6	4
CC(=O)NC(Cc1cccc(C)c1)C(=O)NC1CCN(c2ncccc2[N+](=O)[O-])CC1 (stereo unspecified)	3	2010	3	-25	0.0	1	-4
Cc1nn(Cc2ccc(Cl)cc2)c(C)c1NC(=O)c1cc(-c2ccc3c(c2)OCO3)on1	-15	10100	2	-24	4.0	0	7
CCC(C)N1C(=O)/C(=C/c2c(NCCCOC(C)C)nc3c(C)cccn3c2=O)SC1=S (stereo unspecified)	-19	?	·	-24	6.6	22	5
O=C(O)c1cc(-c2cccs2)nc2ccc(Br)cc12	·	4402	12	-24	·	·	·
CCOC(=O)/C(=N\O)C1=NC(C)(C)Cc2ccccc21	·	2019	-9	0	·	·	·
O=P(C(Cl)Cl)(N1CCCCC1)N1CCCCC1	-2	9404	-6	-20	2.0	4	-4

Only Mtb hypoxia rep growth and Mtb hypoxia rep (2 entries from above):
Compound | Mtb hypoxia rep growth | Mtb hypoxia rep
O=C(Nc1nc(-c2cc(F)ccc2F)cs1)c1cccc(N2C(=O)CCC2=O)c1 | -1 | 14
CC(OC(=O)CCC(=O)c1cccs1)C(=O)NC1CCCCC1C (stereo unspecified) | 2 | 6

The list continues:
SMILES	Sa ugtP lethal	Bead autofluor	BJeLR viability	PrP 5UTR inh	Sa RN4220 lethal	Mtb hypoxia rep	Mtb hypoxia rep growth
CCOCC(O)CSCc1ccc(Cl)cc1 (stereo unspecified)	8	?	3	0	2.6	16	3
COc1ccc(NC(=O)C(C/C=C(/C)Cl)C(C)=O)cc1 (stereo unspecified)	7	3568	-7	-2	14	8	1
CCOc1ccc(NC(=O)CC2C(=O)NCCN2C(=O)Nc2ccccc2)cc1 (stereo unspecified)	·	5816	1	-16	·	·	·
Nc1ccc(Nc2ccc([N+](=O)[O-])cc2[N+](=O)[O-])cc1	5	1921	-1	-7	5.8	-2	6
O=C(c1cnc(Cl)c(Cl)c1)N1CCC(Cc2ccccc2)CC1	-11	2002	-2	9	1.0	15	9
Cc1ccc(N(CC(=O)NC2CCCC2)C(=O)CCC(=O)Nc2nccs2)cc1C	1	3352	-1	-15	3.9	8	7
C/C(=N\N1CCN(c2ccc(Cl)cc2)CC1)c1cccc([N+](=O)[O-])c1	·	2537	-4	-19	·	·	·
CN(C)c1ccc(C(=S)N2CCN(c3ccc([N+](=O)[O-])cc3)CC2)cc1	4	5148	8	-7	1.3	-1	7
O=C1CC(=O)N(Cc2ccco2)C(=S)N1	-3	2951	1	-17	3.4	·	·
CCCCS(=O)(=O)N1CCN(S(=O)(=O)c2cccs2)CC1	-2	5711	-7	-14	2.5	6	9
COc1ccc(CNC(=O)C2CC(C)=CCC2C(=O)O)cc1 (stereo unspecified)	4	3945	1	·	4.6	-6	2
CCCCOc1ccc(C(C)NC(=O)CCS(=O)(=O)Cc2ccc(Cl)cc2)cc1 (stereo unspecified)	8	2391	-15	2	2.6	9	9
O=C(CCCc1nc2ccccc2s1)N1CCN(c2ccccc2)CC1	0	2567	-3	-20	-7.0	-2	0
C/C(=N\NC(=O)CO/N=C(\C)c1cccs1)c1ccc(N)cc1	·	4344	2	-18	·	·	·
